Bioassay records (PubChem BioAssay)
2A Renilla: FMDV 2A StopGo reporter, Renilla signal. Potency, µM (titrated, usually from 57.5 µM), without a hit: top-dose signal change, negative = less light. HEK cells with a luciferase reporter of 2A StopGo recoding. 0.32% of 120,000 active; active means well fitted falling curve with a large enough effect; inconclusive means small, poorly fitted or top-dose-only effect; inactive means no such curve, though single readings can be large or run the other way; also: nearly all actives have a fitted effect of over 55% in size; overnight with compound
StopGo FLuc: FMDV 2A StopGo reporter, firefly signal; Potency, µM (highest dose often 57.5 µM), inactives show at the highest dose signal change, negative = less light; AID 1745856; HEK cells with a luciferase reporter of 2A StopGo recoding; 0.23% of 120,000 active; active = well fitted falling curve with a large enough effect; inconclusive = small, poorly fitted or top-dose-only effect; inactive = no such curve, though single readings can be large or run the other way; also: nearly all actives have a fitted effect of over 60% in size; overnight with compound
Active calls of the source: *; ? = inconclusive; & = joins results of further samples; [ ] = another dose, or the depositor's remark. % is scaled to controls: 0 for no effect and ±100 for the full control effect; potency is read from the fitted curve at half-maximal effect. A portion of the library (hit frequency here may not be typical).

compound | 2A Renilla | StopGo FLuc
O=C1CCCc2cc(S(=O)(=O)NCC3CCC(C(=O)Nc4ccc(Cl)cc4)CC3)ccc2N1 (stereo not given) | 9.9% | 4.4%
Cc1ccccc1-n1c(/C=C/c2ccc(O)cc2)nc2ccccc2c1=O | ? | 8.0%
CC(Sc1nc2ccccc2o1)C(=O)N1CCCC1 (stereo not given) | 3.2% | 0.0%
COc1ccc(-c2c(C)c3ccc(OS(C)(=O)=O)cc3oc2=O)cc1OC | ? | ?
Cc1ccc(NC(=O)c2ccc3ccccc3n2)c(C)c1 | -6.0% | 154.7%[activator]
Cc1ccc(C(=O)N(C)C2CCN(CCc3ccccn3)CC2)s1 | -12.1% | 6.5%
Cc1ccc(CNC(=O)c2ccc(CSCc3ccccc3C)o2)cc1 | 24.9%&4.1% | 0.0%&-11.3%
CONC(=O)Cc1csc(NC(=O)c2ccccc2)n1 | -2.3% | 0.0%
CCOC(=O)c1cccc(NC(=O)CCc2nc3c(C)nn(-c4ccc(C)cc4)c3n(CC)c2=O)c1 | -4.2% | -6.9%
NNc1ccc(S(=O)(=O)Nc2ccccc2)cc1[N+](=O)[O-] | 124.2%[activator] | 11.5%

Next section (6 carried over from the part before).
compound | 2A Renilla | StopGo FLuc
Cc1ccc(NC(=O)c2ccc3ccccc3n2)c(C)c1 | -6.0% | 154.7%[activator]
Cc1ccc(C(=O)N(C)C2CCN(CCc3ccccn3)CC2)s1 | -12.1% | 6.5%
Cc1ccc(CNC(=O)c2ccc(CSCc3ccccc3C)o2)cc1 | 24.9%&4.1% | 0.0%&-11.3%
CONC(=O)Cc1csc(NC(=O)c2ccccc2)n1 | -2.3% | 0.0%
CCOC(=O)c1cccc(NC(=O)CCc2nc3c(C)nn(-c4ccc(C)cc4)c3n(CC)c2=O)c1 | -4.2% | -6.9%
NNc1ccc(S(=O)(=O)Nc2ccccc2)cc1[N+](=O)[O-] | 124.2%[activator] | 11.5%
O=C(COC(=O)CC(c1ccccc1)c1ccccc1)Nc1ccc(N2CCOCC2)cc1 | -4.8%[1.06 µM] | 5.7%
CCCN(C)c1ccc(/C=N/NC(=S)Nc2ccc(CC)cc2)cc1 | 0.0% | 0.0%
O=c1oc2ccccc2c(O)c1Sc1ccc(Cl)cc1 | 28.4% | 10.4%
COc1ccc(NC(=O)c2sc3nc4c(c(-c5ccco5)c3c2N)CCC4)cc1 | 11.0% | 24.6%
CCC(=O)N1c2ccccc2CC1C(=O)NCc1cc(Br)ccc1OC (stereo not given) | -6.9% | -5.4%
CCOc1cc(C2C(C#N)=C(N)Oc3cc4c(cc32)OCO4)cc(Br)c1OC (stereo not given) | 28.7% | 19.5%
Cc1ccc(-c2csc3c2NC(=O)CC3c2ccc(OCC(N)=O)cc2)cc1 (stereo not given) | ? | ?
O=C(OCC(=O)c1cccs1)c1ccc(O)cc1 | 8.3% | 113.7%[activator]
COCCn1c(SCC(=O)Nc2cc(Cl)ccc2OC)nnc1-c1cccc(C)c1 | 21.8% | -10.4%
COc1cc(NC(=O)c2cc(=O)c3ccccc3o2)cc(OC)c1 | 61.0% | 163.2%[activator]
CC(C)S(=O)(=O)c1oc(-c2ccc(F)cc2)nc1S(=O)(=O)c1ccccc1 | 3.9% | ?
Cc1cccc(C)c1NC(=O)c1sc(-n2nc(C)c(Cc3ccccc3)c2C)nc1C | -10.4% | -11.6%
O=S(=O)(c1ccc(Br)s1)N1CCOc2ccc(COCc3ccccc3)cc2C1 | 17.8% | 3.3%
Cc1ccc(-n2nnc(-c3nsc(NC(=O)c4ccc(C)c(C)c4)n3)c2C)cc1 | -7.4% | 16.2%
Cc1ccccc1OCc1nc(-c2ccccc2OCC(=O)N2CCCCCC2)no1 | 15.1% | 45.7%[activator]
CCC(C)NC(=O)c1c2c(nc3ccccc13)C(=O)N(C1CCCCC1)C2 (stereo not given) | -11.7% | -19.0%
O=C(CCC1N=C2c3ccccc3N=C(SCC(=O)Nc3cccc(Cl)c3)N2C1=O)NCc1ccco1 (stereo not given) | 44.5%[activator] | -12.5%
CC(C)C(C#CCN1CCCCC1)(c1ccccc1)c1ccccc1 | 8.4% | 10.3%
O=C(CC1N=C2c3ccccc3N=C(SCC(=O)Nc3ccc(F)cc3)N2C1=O)NCc1ccc2c(c1)OCO2 (stereo not given) | -28.7% | 30.5%[activator]
Fc1ccc(C(NCCc2ccccc2)c2nnc(-c3ccccc3Cl)o2)cc1 (stereo not given) | 133.5%[activator] | -7.3%

Three entries already listed, sorted by formula weight, ascending:
compound | 2A Renilla | StopGo FLuc
CC(C)S(=O)(=O)c1oc(-c2ccc(F)cc2)nc1S(=O)(=O)c1ccccc1 | 3.9% | ?
Cc1ccccc1OCc1nc(-c2ccccc2OCC(=O)N2CCCCCC2)no1 | 15.1% | 45.7%[activator]
O=S(=O)(c1ccc(Br)s1)N1CCOc2ccc(COCc3ccccc3)cc2C1 | 17.8% | 3.3%

Remaining list, next part.
compound | 2A Renilla | StopGo FLuc
Cc1ccc(-c2noc(CN3CCCC3c3cccn3C)n2)cc1 (stereo not given) | 8.5% | 93.4%[activator]
Cc1ccc2nc(Nc3ccccc3)c(-n3nc(C)cc3C)nc2c1 | -4.4% | 31.3%[activator]
COc1ccc(-c2cc(C(=O)N3CCN(c4ccccc4OC)CC3)c3cc(C(C)C)ccc3n2)cc1 | -11.3% | 4.7%
Cc1cccc(OCCOC(=O)c2ccc3nccnc3c2)c1 | 6.3% | 24.3%
CCNc1c(NC(=O)NC2(CC(=O)OCC)CCCCC2)c(=O)oc2ccccc12 | 26.7% | 35.4%[activator]
O=c1oc2ccccc2cc1S(=O)(=O)c1ccc(Cl)c(Cl)c1 | -11.6% | 6.2%
CCCc1cc(=O)oc2cc(OC(C)C(=O)NC3CC(C)(C)NC(C)(C)C3)ccc12 (stereo not given) | -13.0% | -4.4%
Cc1ccc(Cl)cc1NC(=O)c1cnn2c(C(F)F)cc(-c3ccccc3)nc12 | -5.0% | -9.1%
O=C(CN(Cc1cccs1)C1CC1)NCC1CCCO1 (stereo not given) | 2.2% | 11.4%
O=C(NCCc1ccc(Cl)cc1)C(=O)NCC(c1cccs1)S(=O)(=O)c1cccs1 (stereo not given) | ? | -34.2%
c1ccc(CCCNc2nc(Nc3ccccc3)c3nccnc3n2)cc1 | 16.0% | 17.5%
Cc1cc2nn(-c3ccc(F)cc3)nc2cc1NC(=O)c1cccc([N+](=O)[O-])c1C | 0.8% | 100.1%[activator]
Cc1ccc(Cl)cc1NC(=O)COC(=O)CC(C)(C)CC1=NS(=O)(=O)c2ccccc2N1 | 160.1%[activator] | -15.6%
CCc1cccc(NC(=O)C(Cc2ccccc2)NS(=O)(=O)c2ccc3c(c2)c(=O)n(C)c(=O)n3C)c1 (stereo not given) | 29.9% | -19.0%
Cc1ccc(NC(=O)CCc2ccco2)c(Br)c1 | 8.9% | 81.9%[activator]
CCOC(=O)c1noc2ncn(CC(=O)Nc3ccc(C)c(F)c3)c(=O)c12 | -6.6% | 0.7%
COc1ccccc1CNC(=O)CCCn1c(=O)c2ccccc2n(Cc2ccc(C)cc2)c1=O | -10.6% | -3.5%
COc1ccc(-c2c3c(nc4sc(C(=O)Nc5ccc(Cl)cc5)c(N)c24)CC(C)(C)CC3=O)cc1 | -4.5% | 0.0%
Cc1nc2ccccc2n1CC(O)COc1ccc(C(=O)O)cc1 (stereo not given) | -7.2% | -4.9%
O=C(NCc1coc(-c2cccs2)n1)c1ccc(OC(F)(F)F)cc1 | -1.6% | -2.8%
CC(=O)NCc1ccc(C(=O)NCCc2c[nH]c3ccccc23)cc1 | -8.7% | 74.5%[activator]
O=C(NCCc1ccccc1)c1cnc2sc(N3CCOCC3)nn2c1=O | -5.5% | 12.8%
Cc1ccc(S(=O)(=O)N2CCOCC2)cc1NC(=O)CSc1nc2ccc(Cl)cc2[nH]1 | 18.1% | -10.4%
Cn1c(COc2ccc3c(c2)CCCC3)nnc1SCC(=O)N1CCc2ccccc2C1 | -14.6% | 0.4%
CCOc1ccc(S(=O)(=O)N2CCN(c3ccccc3)CC2)cc1C(N)=O | 7.4% | -1.9%
CCCCCCCCC/C(C)=N/NC(=O)C(=O)N/N=C(\C)CCCCCCCCC | 0.9% | 3.0%
O=C(C1CCCCC1)N(Cc1cccnc1)c1nc2c(Cl)cccc2s1 | 2.6% | -5.0%
Cc1ccc(F)cc1N=Cc1ccc2ncccc2c1 | 32.3% | 63.4%[activator]
Cc1ccc(NC(=O)C(=O)c2cc(C)n(-c3ccc(F)cc3)c2C)cc1C | 119.6%[activator] | 77.3%[activator]
COCCn1c(C)cc(O)c(C(c2ccc(Cl)cc2)N2CCCCC2)c1=O (stereo not given) | 60.3%[activator] | 3.4%

Next section:
compound	2A Renilla	StopGo FLuc
Cn1c(CNC(=O)C(Cc2ccccc2)NS(=O)(=O)c2ccc(Cl)cc2)cc(=O)n(C)c1=O (stereo not given)	31.0%[activator]	12.0%
S=C(NCc1ccc(Cl)cc1)Nc1ccc2ccccc2c1	66.5%[activator]	91.0%[activator]
Cc1cccc(C)c1NC(=O)C(C)Sc1ccc2c(c1)OCCCO2 (stereo not given)	-4.7%[1.06 µM]	?
N#Cc1ccc(OC[C@@H](O)CN2CCC(C(O)(c3ccccc3)c3ccccc3)CC2)cc1F	-5.1%	-5.6%
CCN(CC)C(=O)C(=O)c1cn(C)c2ccccc12	15.9%	7.3%
COC(=O)c1cc2sccc2n1Cc1ccc(F)cc1	-20.1%	4.2%
Cc1nc2sc3c(c2c2nc(C(=O)NCCN(C)C)nn12)CCCC3	-16.8%	-13.1%
CCC(CC)NC(=O)COC(=O)c1cc(S(=O)(=O)N(CC)CC)ccc1N1CCCCC1	49.3%[activator]	7.7%
Cc1nn(CCC(=O)Nc2cccc(F)c2)c(=O)c(C#N)c1C	9.6%	13.3%
Cc1cc(C)cc(NC(=O)N2CCN(C(=O)c3nsc4ccccc34)CC2)c1	-11.9%&-4.6%	-6.6%&-7.4%
Cc1sc(NCCC(C)C)nc1-c1ccc(NS(C)(=O)=O)cc1	?	?
O=C(COc1ccccc1-c1nc(-c2ccccc2)no1)Nc1ccc([N+](=O)[O-])cc1	-7.6%	5.1%
CCC(=O)OC1=CN(Cc2ccccc2)S(=O)(=O)c2ccccc21	14.5%	-4.2%
O=C(Nc1c(C(=O)N2CCN(c3ccccc3F)CC2)oc2ccccc12)c1cccc(F)c1	-3.1%	-23.9%
C1CCN(CCCNC2C3CC4CC(C3)CC2C4)C1 (stereo not given)	-11.5%	-3.7%
CC(C)(C)C(=O)Nc1ccc(N2CCCCC2)c2ccncc12	-7.6%	-2.1%
O=C(OCc1ccccc1)c1ccccc1	-10.1%	-1.3%[11.5 µM]
CCCSCCCNC(=O)c1ccc2c(c1)nc1n2CCCCC1	29.2%	55.9%[activator]
COc1ccc(NC(=O)Cn2c(=O)n(CCC(=O)NCC3CCCO3)c(=O)c3cc(OC)c(OC)cc32)cc1 (stereo not given)	3.6%	-15.6%
CCOC(=O)N1CCN(CCC(=O)Nc2cc(C)ccc2C)CC1	-9.3%	-11.4%
CC(C)CCN1C(=O)c2ccccc2C1c1c[nH]c2ccccc12 (stereo not given)	52.3%[activator]	-22.4%
NC(=O)COc1c(Cl)cc(Cl)cc1Br	-10.1%	-7.2%
O=C(O)C(c1c[nH]c2ccc(Cl)cc12)N1CCN(S(=O)(=O)c2ccccc2)CC1 (stereo not given)	-9.9%	-11.5%
Cc1cccc(OC(=O)c2cc(-c3ccc4c(c3)OCCO4)on2)c1	0.2%	45.7%[activator]
CC(C)NC(NC(=O)c1ccc(Br)cc1)C(Cl)(Cl)Cl (stereo not given)	19.2%	12.1%
Cc1ccc(S(=O)(=O)N2CCN(C(=O)c3cc4cc(Cl)ccc4nc3C)CC2)c(C)c1	-16.7%	-27.8%
O=C(c1cc2ccccc2oc1=O)N1CCN(Cc2ccc(Cl)cc2)CC1	?	?
CCOC(=O)c1ccc(N2C(=O)c3n[nH]c(-c4ccco4)c3C2c2ccc(F)cc2)cc1 (stereo not given)	?	?
O=C(Nc1ccc(Br)cc1F)c1cc(S(=O)(=O)NC2CCCCC2)ccc1F	195.3%[activator]	-10.1%
CC(OC(=O)c1ccc2ccccc2n1)C(=O)c1ccccc1 (stereo not given)	-13.7%	-3.6%
CCc1ccc(NC(=O)OC)cc1	1.2%	54.7%[activator]
CC(C)(C)OC(=O)N1CCC(c2c(C(=O)NCCN3CCC(Cc4ccccc4)CC3)cnn2-c2ccccc2)CC1	-10.9%	-14.7%
CCN(C(=O)CCl)C1CCCCC1	-3.0%	-10.8%
COc1ccc(Nc2nc3ccc(C)cc3nc2-n2nc(C)cc2C)cc1	9.8%	32.8%
Cc1ccc(-c2cn3ccccc3n2)c(C)c1	4.7%[1.06 µM]	126.5%[activator]
Cn1c(=O)c2c(nc(NC3CCCCC3)n2Cc2ccccc2F)n(C)c1=O	19.3%	16.3%
Cc1cc2c(nc1C)oc1c(=O)n(CC(=O)N3CCOCC3)cnc12	-4.0%	9.5%
CCCN(CCC)C(=O)Cn1c(=O)n(-c2cccc(C(F)(F)F)c2)c(=O)c2c(C)c(C)sc21	5.7%	0.6%
CCc1ccc(NC(=O)C2CCN(S(=O)(=O)c3c(C)noc3/C=C/c3cccs3)CC2)cc1	-2.9%	-3.5%
CCOC(=O)Cn1nc(-c2ccccc2)c2cnc3ccc(OCC)cc3c21	-8.1%	-10.7%
CCC(C)Nc1nc(-c2ccc(NC(C)=O)cc2)cs1 (stereo not given)	62.9%[activator]	301.9%[activator]
NC(=O)C1CCN(Cc2ncc(-c3ccccc3)o2)CC1	15.1%	130.1%[activator]
COc1ccc(C(=O)Oc2ccc(C(C)C)cc2)cc1I	10.0%	5.8%
O=C(Nc1c(NC2CCCC2)c2ccccc2oc1=O)c1ccccc1F	7.4%	7.9%
